PrP 5UTR inh: suppresses PrP 5' UTR mRNA reporter expression; actives 0.35% (n = 340,000); cell-based PrP 5' UTR mRNA reporter, plate reader; inhibition, % (test concentration not listed);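 active = every replicate at 50% or more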;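 also: 0 = median of the neutral control wells; tested in H4 reporter cells; numbers are from one replicate; inactives centre near -14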
Mtb hypoxia rep: inhibitors of hypoxia-regulated fluorescent reporter in Mycobacterium tuberculosis. fluorescence inhibition, % (no concentration beside the values). M. tuberculosis hypoxia-regulated fluorescent reporter, fluorescence. AID 1159583. actives 0.1% (n = 300,000);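 active = 35 to 45% if threefold the growth effect, above 45% if 1.5-fold the growth effect; inactive = the rest, general growth blockers included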;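 also: wells of about 50 µL received 100 nL stock; 0% = vehicle wells and 100% = reference inhibitor wells; whole bacteria with a GFP reporter of the hypoxia response; strong numbers were not always called active; many hits fall short of the cut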
Autofluor counter: flagged as autofluorescent in microsphere protease counterscreen; fluorescence intensity (no concentration beside the values); compound autofluorescence counterscreen, microsphere flow cytometry; stronger effect = higher value; actives 3.1% (n = 360,000); AID 624483;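 active = at least 3 SD above the mean of all compounds, about 16000 in these data; inconclusive = too few beads counted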;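 also: 100 nL of 1 mM stock went into each well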
BJeLR lethal: kills HRASV12-expressing BJeLR cells. BJeLR (HRASV12) viability, CellTiter-Glo ATP luminescence, 48 h; reference of the scale not given here. actives 0.17% (n = 300,000). inhibition, % (test concentration not listed);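 active = replicate mean above 50%; inconclusive = above 50% but judged a plate artefact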;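 also: 50 nL library stock added to about 25 µL; numbers are from one replicate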
RN4220 kill: S. aureus RN4220 growth inhibition; OD600, 16 h; inhibition, % (no concentration beside the values); actives 0.33% (n = 330,000);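 active = z-score of -3 or lower and OD600 up to 0.18 on both plates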;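 also: plate controls were untreated cells for no effect and reference antibiotic for full effect; stock transfer was 100 nL into about 80 µL; one replicate is shown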
ugtP null kill: compounds lethal to S. aureus RN4220 ugtP deletion mutant; growth inhibition, % (concentration not given with the values); OD600 growth, 16 h; some inactives read as strong as hits; actives 0.54% (n = 330,000);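 active = z-score under -3 and OD600 up to 0.15 on both plates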;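 also: plate controls were untreated wells for no effect and antibiotic for full effect; wells of about 80 µL received 100 nL stock; the first replicate is given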
Mtb hypoxia rep growth: second read-out of Mtb hypoxia rep, no call of its own (marks repeat the call); growth inhibition, %; measured here: M. tuberculosis growth (absorbance);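 0% = vehicle and 100% = reference antibiotic; read after six days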
* marks the source's active call; other numbers are inactive results; ? = inconclusive; / = no result given.

SMILES	PrP 5UTR inh	Mtb hypoxia rep	Mtb hypoxia rep growth	Autofluor counter	BJeLR lethal	RN4220 kill	ugtP null kill
Cn1c(=O)c2c(nc(SCC(=O)N3c4ccccc4CCc4ccccc43)n2C)n(C)c1=O	18	-7	1	7675	/	1.4	-4
CCOC(=O)C1CCN(S(=O)(=O)c2cn(C)c(C)n2)CC1	-12	11	-5	5427	6	1.8	9
Cn1nnnc1NCc1ccc(Cl)c(Cl)c1	-17	12	-2	4121	-10	-1.4	1
Cn1c(SCC(=O)c2ccc3c(c2)Cc2ccccc2-3)nnc1-c1ccccc1	-18	/	/	3084	4	6.1	-9
CCOc1ccc(N=Cc2ccc3ccccc3c2)cc1	-24	6	-4	3083	-6	6.4	2
CCN1CCN(C=Nc2nc(C)cs2)CC1	/	5	7	/	/	1.8	5
CC(=O)Nc1ccc(S(=O)(=O)NCCN2CCNC2=O)cc1Cl	-10	12	9	5602	0	1.3	3
COc1ccc(C(=O)n2nnc3ccccc32)cc1OC	-25	1	8	2079	/	-2.2	-1
CCOc1cc(CNCCN2CCOCC2)ccc1OCc1ccccc1Cl	0	11	4	4856	-2	2.5	4
O=C(NC(=S)Nc1ccccc1CO)C1CCCCC1	-28	5	4	4198	/	5.6	20
Cc1ccc(S(=O)(=O)N2CCC(C(=O)NC3CC3)CC2)cc1	-30	-1	4	3478	-7	-1.9	5
O=C(COc1ccc(C=NNS(=O)(=O)c2ccccc2)cc1)Nc1cccc(Cl)c1	/	16	19	/	/	1.7	5

The list goes on (two carried over from the part before).
SMILES	PrP 5UTR inh	Mtb hypoxia rep	Mtb hypoxia rep growth	Autofluor counter	BJeLR lethal	RN4220 kill	ugtP null kill
Cc1ccc(S(=O)(=O)N2CCC(C(=O)NC3CC3)CC2)cc1	-30	-1	4	3478	-7	-1.9	5
O=C(COc1ccc(C=NNS(=O)(=O)c2ccccc2)cc1)Nc1cccc(Cl)c1	/	16	19	/	/	1.7	5
CC(=NNC(=O)CN1CCN(Cc2ccccc2)CC1)c1ccc([N+](=O)[O-])cc1	/	0	-1	/	/	1.2	-4
COC(=O)c1c(-c2cc(C)ccc2C)csc1NC(=O)C1CC=CCC1C(=O)O (configuration not stated)	-14	8	6	5154	2	16	8
COc1ccccc1OC(C)C(=O)O (configuration not stated)	-25	7	4	20529*	3	2.8	1
O=C(CCC1COc2ccccc2O1)NCc1ccccc1 (configuration not stated)	2	6	11	9831	-2	3.0	1
O=S(=O)(/C=C/c1ccccc1)N1CCNCC1	-3	-3	7	3268	-7	3.7	2
CN(C)CCN(C(=O)c1ccc2ccccc2c1)c1nc2ccc(Br)cc2s1	-21	-1	4	4376	-4	-6.4	-17
CCOCCn1c(=NC(=O)/C=C/c2ccccc2Cl)sc2cc(NC(C)=O)ccc21	-11	-9	-3	2011	-7	0.3	-1
COCCNC(=S)N(Cc1cccnc1)Cc1ccc(OC)c(OC)c1	-9	5	9	2010	13	2.5	2
Cc1c(C(=O)NC2=NCCS2)oc2ccccc12	-34	4	5	21128*	8	-1.3	-6
CCOC(=O)c1c(S(=O)(=O)NCC(=O)N2CCN(c3ccc(F)cc3)CC2)c(C)n(C)c1C	-2	-1	-2	4049	-4	0.3	-2
Cc1sc(NC(=O)C2CCCCC2C(=O)O)c(C(N)=O)c1-c1ccccc1 (configuration not stated)	-39	/	/	6167	3	-2.0	12
Cc1cc(C)cc(NC(=O)C2CCCN2C(=O)Oc2ccccc2)c1 (configuration not stated)	5	5	7	5855	-9	-0.5	-7
Cc1ccc(Cn2c(Sc3nccc(C)n3)nc3c2c(=O)[nH]c(=O)n3C)cc1	3	7	9	7312	-5	6.7	4
N#Cc1cc2cc3ccccc3nc2n2c(=O)c3ccccc3nc12	-6	-4	1	4883	1	6.0	-3
Cc1cc(C)c(S(=O)(=O)Nc2nnc(C)s2)c(C)c1	-10	/	/	2166	2	5.6	0
COc1cc(/C=C/C(=O)O)cc(S(=O)(=O)Nc2ccc3nc(C)sc3c2)c1OC	-24	-5	-5	3417	3	2.8	13
CC(C)(C)NC(=O)Cn1cnc([N+](=O)[O-])n1	-23	5	2	6323	1	-2.5	20
CCC1C(O)=C(c2ccccn2)C(=N)N1c1ccccc1 (configuration not stated)	7	5	7	8316	3	5.1	5
COC(=O)C1=C(c2ccc(S(C)(=O)=O)cc2)C[C@@H]2CC[C@H]1N2C(=O)NCc1cccc2ccccc12	-20	/	/	3806	-4	/	/
O=C(NN=Cc1ccc(-c2ccc([N+](=O)[O-])cc2)o1)c1cccnc1	/	-10	1	/	/	0.8	-4
CCc1nnc(SCC(=O)Nc2ccc(C(C)=O)cc2)nc1CC	-7	/	/	2865	-4	/	/
O=c1[nH]c(CN2CCNCC2)nc2ccccc12	-4	8	4	3455	1	0.8	-3
COc1ccc(Nc2c[nH]c(=O)[nH]c2=O)cc1	-7	6	15	4184	/	0.9	-2
Cc1ccc(F)cc1NC(=O)CSCc1nc2sc(C)c(C)c2c(=O)[nH]1	-12	5	0	6616	3	5.6	-3
O=C(c1ccc(N2CCCC2)c([N+](=O)[O-])c1)N1CCc2ccccc2C1	0	-1	9	6680	8	1.0	2
CC(C)C(NC(=O)c1cccc(S(=O)(=O)N2CCOCC2)c1)C(=O)NCCc1ccccn1 (configuration not stated)	-12	/	/	4140	-3	0.6	1
CCn1nc(C(=O)OCC(=O)N2CCc3ccccc32)c2ccccc2c1=O	-26	13	6	9272	0	0.2	-1
CN(C)c1ccc(C=NNC(=O)c2cc(=O)[nH]c3ccccc23)cc1	/	7	17	/	/	-0.9	8
Cc1cc(Cl)ccc1OCC(=O)Nn1c(C)ccc1C	1	-5	8	4113	1	4.7	-7
C(#CCN1CCOCC1)COCc1ccccc1	-11	11	10	3106	-1	0.8	-2
Cc1cccc(-n2c(C)cc(/C=N/n3cnnc3)c2C)c1	-10	/	/	3381	1	/	/
O=C(Nc1ccccc1)N1CCN(C2c3ccccc3-c3ccccc32)CC1	-5	2	9	5916	2	1.7	-2
O=C(CSc1ncccc1-c1nc2ccccc2[nH]1)N1CCN(c2ccccc2F)CC1	-11	10	8	17934*	9	2.2	-29
COc1ccc(NS(=O)(=O)c2cccc(C(=O)NC3CCC(O)CC3)c2)cc1 (configuration not stated)	-21	8	0	3068	0	3.0	0
COc1cc(C(=O)Nc2cc(S(=O)(=O)N3CCOCC3)ccc2N2CCOCC2)cc(OC)c1C	/	9	-1	5438	/	0.6	6
Cc1[nH]n(-c2ccccc2)c(=O)c1/C=N/Nc1nncc(-c2ccccc2)n1	41	/	/	11091	57*	/	/
CCC(C)NC(=O)c1c(C)cc(=O)oc1C (configuration not stated)	-27	0	5	20515*	-1	2.7	0
O=C(CN1CCc2ccccc21)NCc1ccc2c(c1)OCO2	-14	1	-6	2191	-2	0.7	5
CN(C(=O)c1coc(=O)c2ccccc12)c1ccc(F)cc1	-21	2	6	2784	-3	3.7	0
COc1ccc(C(=O)Nc2ccc3c(c2)OCCO3)cc1Br	-88	17	7	3716	-6	-1.4	7
O=C(O)CC(c1ccccc1)n1cccc1 (configuration not stated)	3	/	/	4629	0	1.2	4
CS(=O)(=O)N1CCC(CO)(Cc2ccccc2C(F)(F)F)CC1	-8	7	5	4112	0	9.1	-2
Cc1ccc(-n2nc3c(c2NC(=O)c2ccco2)CS(=O)(=O)C3)cc1C	-31	12	9	?	-9	-1.5	7
COc1ccc(C)cc1Nc1c2c(nc3ccccc13)CCC2	54	2	-1	3604	56*	0.3	-2
CCOC(=O)c1ccc(NC(=O)CC2C(=O)N(c3ccccc3)C(=O)N2CCCOC)cc1 (configuration not stated)	-62	14	5	19974*	-1	2.8	8
Cc1ccc(OCC(O)CN2CCN(c3ccc(C)cc3)CC2)cc1 (configuration not stated)	-5	17	4	4328	0	-1.4	19
CNC(=O)C1CC(=O)N/C(=N/N=C(\C)c2cccs2)S1 (configuration not stated)	-20	/	/	4350	-9	/	/
COC(=O)c1cn(NC(=O)c2ccc3c(c2)OCO3)c(=O)c2ccccc12	-37	-2	12	3043	-17	-1.0	0
CCOC(=O)C1CCN(C(=O)CCS(=O)(=O)Cc2ccccc2)CC1	-19	13	2	3935	0	0.4	11
CC1CCc2onc(C(=O)NCc3ccco3)c2C1 (configuration not stated)	-25	26	21	4580	6	4.0	4
O=C(NNC(=S)NCc1ccco1)C(c1ccccc1)c1ccccc1	-51	11	-5	3870	2	1.7	4
O=C(Cc1ccc(Cl)cc1)NN=Cc1cccc(O)c1	/	-2	5	/	/	2.5	2
O=C(CSc1nnc2n1CCCN2C(=S)Nc1ccc(Cl)cc1)c1ccccc1	-4	-11	4	20424*	0	1.7	-10
Cc1ccc(-n2cc(CN3CCN(C(=O)c4ncn[nH]4)CC3)c(-c3ccc(F)cc3)n2)cc1	-17	-2	3	4964	6	-0.6	-4
Cn1c(O)c(N=Nc2nc(-c3ccccc3)cs2)c2ccccc21	-24	2	-4	2491	2	6.2	-18
O=C(NCc1cccc(F)c1)C1CCC(=O)N(CC2CCCCC2)C1 (configuration not stated)	-2	0	-1	4484	1	5.8	7
Cc1c(NC(=O)c2ccc(-c3ccc([N+](=O)[O-])cc3Cl)o2)c(=O)n(-c2ccccc2)n1C	-4	4	2	3764	-6	4.8	2
COc1ccc(CNC(=O)COC(=O)CCc2nc3ccccc3c(=O)[nH]2)cc1	-24	2	1	3699	-4	-3.4	3
Nc1cc(C(=O)N2CCCC2)cc(C(=O)N2CCCC2)c1	-42	10	11	10312	7	3.8	7
COc1ccc(/C=C2\CCCC3C2=NN(C(=O)CSc2ncn[nH]2)C3c2ccc(OC)cc2)cc1 (configuration not stated)	-8	3	-2	9976	0	-1.2	1
COc1ccc(NC(=O)C2CCC(=O)N2S(=O)(=O)c2ccc(C)cc2)c(OC)c1 (configuration not stated)	-5	2	0	7994	/	6.8	17
O=C(C1CCC1)N1CCN(Cc2ccccc2)CC1	-20	/	/	3280	-7	0.4	1
COc1ccccc1Oc1ccc(Oc2ccccc2OC)cc1	-10	2	3	4333	1	61	3

By substructure, the entries above containing an aryl methoxy group.
SMILES	PrP 5UTR inh	Mtb hypoxia rep	Mtb hypoxia rep growth	Autofluor counter	BJeLR lethal	RN4220 kill	ugtP null kill
COc1ccc(C(=O)n2nnc3ccccc32)cc1OC	-25	1	8	2079	/	-2.2	-1
COc1ccccc1OC(C)C(=O)O (configuration not stated)	-25	7	4	20529*	3	2.8	1
COCCNC(=S)N(Cc1cccnc1)Cc1ccc(OC)c(OC)c1	-9	5	9	2010	13	2.5	2
COc1cc(/C=C/C(=O)O)cc(S(=O)(=O)Nc2ccc3nc(C)sc3c2)c1OC	-24	-5	-5	3417	3	2.8	13
COc1ccc(Nc2c[nH]c(=O)[nH]c2=O)cc1	-7	6	15	4184	/	0.9	-2
COc1ccc(NS(=O)(=O)c2cccc(C(=O)NC3CCC(O)CC3)c2)cc1 (configuration not stated)	-21	8	0	3068	0	3.0	0
COc1cc(C(=O)Nc2cc(S(=O)(=O)N3CCOCC3)ccc2N2CCOCC2)cc(OC)c1C	/	9	-1	5438	/	0.6	6
COc1ccc(C(=O)Nc2ccc3c(c2)OCCO3)cc1Br	-88	17	7	3716	-6	-1.4	7
COc1ccc(C)cc1Nc1c2c(nc3ccccc13)CCC2	54	2	-1	3604	56*	0.3	-2
COc1ccc(CNC(=O)COC(=O)CCc2nc3ccccc3c(=O)[nH]2)cc1	-24	2	1	3699	-4	-3.4	3
COc1ccc(/C=C2\CCCC3C2=NN(C(=O)CSc2ncn[nH]2)C3c2ccc(OC)cc2)cc1 (configuration not stated)	-8	3	-2	9976	0	-1.2	1
COc1ccc(NC(=O)C2CCC(=O)N2S(=O)(=O)c2ccc(C)cc2)c(OC)c1 (configuration not stated)	-5	2	0	7994	/	6.8	17
COc1ccccc1Oc1ccc(Oc2ccccc2OC)cc1	-10	2	3	4333	1	61	3

From PubChem BioAssay
